NPYLR7 agonist: agonists of mosquito NPYLR7 receptor, primary screen, cell-based, Aedes aegypti, calcium fluorescence, mosquito biting behavior; Aedes aegypti neuropeptide Y-like receptor 7 (NPYLR7); 0.15% of 270,000 active; activation, % at 10 µM; HEK293T NPYLR7/Galpha15, GCaMP6s calcium fluorescence; in the data active = activation above about 40%;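 note: 0% = vehicle and 100% = reference agonist at the receptor; some compounds past the cut are filed as inactive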
NPYLR7 agonist max-min: second read-out of NPYLR7 agonist, no call of its own (marks repeat the call); activation, %; measured here: Max-Min RFU normalised activation; some inactives read as strong as hits;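 span of the calcium signal over five minutes; 0% = vehicle and 100% = native peptide agonist; compound fluorescence can raise it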
The depositor's hits bear a star. The list is partial (hit frequency here may not be typical).

A first look (two entries):
Screening CCCc1cc(=O)n(CC(=O)N2CCCCC2)c(-n2nc(C)cc2C)n1 returned NPYLR7 agonist -4 and NPYLR7 agonist max-min 0.
Screening Cc1cccc(N2CCN(Cn3ncn(-c4ccccc4)c3=S)CC2)c1C returned NPYLR7 agonist 7 and NPYLR7 agonist max-min 3.

This part in full, from the first entry:
Screening CCCc1cc(=O)n(CC(=O)N2CCCCC2)c(-n2nc(C)cc2C)n1 returned NPYLR7 agonist -4 and NPYLR7 agonist max-min 0.
Screening Cc1cccc(N2CCN(Cn3ncn(-c4ccccc4)c3=S)CC2)c1C returned NPYLR7 agonist 7 and NPYLR7 agonist max-min 3.
For CCC(C(=O)Nc1ccc(C(=O)N(C)C)cc1)c1ccccc1 (stereo unspecified) the results were NPYLR7 agonist 7 and NPYLR7 agonist max-min 4.
For CNC(=O)CSc1nc(-c2ccccc2)c(NC(=O)C2CC2)s1 the results were NPYLR7 agonist -8 and NPYLR7 agonist max-min -14.
For CCc1ccc2nc(Cl)sc2c1 the results were NPYLR7 agonist -15 and NPYLR7 agonist max-min -18.
CC=CC(=O)OCC1=C(C(=O)OCC)C(c2cccs2)NC(=O)N1 (stereo unspecified) was read as NPYLR7 agonist 8 and NPYLR7 agonist max-min 2.
O=C(c1cccs1)N1CCC(n2c(=O)oc3ccc(F)cc32)CC1 was read as NPYLR7 agonist -6 and NPYLR7 agonist max-min 2.
`NC(=O)C1CCN(C(=O)CCC(=O)c2cc(Cl)sc2Cl)C1` (stereo unspecified) gave NPYLR7 agonist 4 and NPYLR7 agonist max-min 3.
For N#CCCNC(=O)c1cc(N2CCSCC2)nc2ccccc12 the results were NPYLR7 agonist 5 and NPYLR7 agonist max-min -1.
`CC(=O)C12CC3CC(C1)CC(C(=O)O)(C3)C2` gave NPYLR7 agonist 1 and NPYLR7 agonist max-min 3.
For COc1ccc(NC(=O)c2ccc(F)cc2F)cc1N1CCCCC1=O the results were NPYLR7 agonist 1 and NPYLR7 agonist max-min -2.
For O=C(Nc1cccs1)NC1CC(=O)N(Cc2cccc3ccccc23)C1 (stereo unspecified) the results were NPYLR7 agonist 1 and NPYLR7 agonist max-min -2.
Cc1ccc(-n2ncc(Oc3ccc4c(c3)OCO4)c(Nc3ccc(C(=O)NCc4ccncc4)cc3)c2=O)cc1 was read as NPYLR7 agonist 8 and NPYLR7 agonist max-min 12.
Screening CCOC(=O)C1=C(O)/C(=C\c2ccc(N(C)C)cc2)SC1=Nc1ccc(OC)cc1OC returned NPYLR7 agonist 79* and NPYLR7 agonist max-min 97*.
Screening CC(=O)Nc1cccc(C(=O)N(Cc2ccsc2)CC(C)C)c1 returned NPYLR7 agonist 3 and NPYLR7 agonist max-min -5.
Oc1ccc(Br)cc1-c1ccn[nH]1 was read as NPYLR7 agonist -5 and NPYLR7 agonist max-min -9.
COCCCN(CC(=O)N(CCc1ccc(OC)c(OC)c1)Cc1sccc1C)C(=O)Nc1cccc(Cl)c1 was read as NPYLR7 agonist -1 and NPYLR7 agonist max-min 6.
For CCC(=O)c1ccc(OCc2cc(-c3ccccc3)on2)cc1 the results were NPYLR7 agonist 0 and NPYLR7 agonist max-min 3.
`O=C(C(=O)N1CCCC(c2[nH]ncc2-c2ccc(F)cc2)C1)c1cccnc1` (stereo unspecified) gave NPYLR7 agonist -2 and NPYLR7 agonist max-min -2.
OCC1(CCCc2ccccc2)CCN(C2Cc3ccccc3C2)CC1 was read as NPYLR7 agonist 8 and NPYLR7 agonist max-min 13.
For O=C(CC1Sc2ccccc2NC1=O)NCCc1cccc2ccccc12 (stereo unspecified) the results were NPYLR7 agonist -3 and NPYLR7 agonist max-min -2.
CCCN(C(=O)Nc1ccccc1Br)C(C)c1nc2ccccc2c(=O)n1-c1cc(OC)cc(OC)c1Br (stereo unspecified) was read as NPYLR7 agonist 6 and NPYLR7 agonist max-min 19.
For CCc1nc2ccc(C(=O)Nc3cccc(OCC(=O)N(C)C)c3)cn2c1N(C)C(=O)c1ccncc1 the results were NPYLR7 agonist 12 and NPYLR7 agonist max-min 9.
`N#Cc1cc(C(=O)NS(=O)(=O)N2CCOCC2)ccc1N1CCCC1` gave NPYLR7 agonist -7 and NPYLR7 agonist max-min -8.
`CN(CCOc1ccc(Cl)cc1)c1nccnc1C#N` gave NPYLR7 agonist 1 and NPYLR7 agonist max-min -1.
CC(C)(C)NC(=O)NC(=O)C[n+]1cccc(O)c1 was read as NPYLR7 agonist 4 and NPYLR7 agonist max-min 1.
For CCOCCOC(=O)C1=C(C)NC2=C(C(=O)CCC2)C1c1cccc(Cl)c1Cl (stereo unspecified) the results were NPYLR7 agonist -6 and NPYLR7 agonist max-min -10.
`N#Cc1ccc(NCCc2ccc3c(c2)OCO3)nc1` gave NPYLR7 agonist 2 and NPYLR7 agonist max-min 1.
Screening CN(CCC(=O)Nc1cccc(Cl)c1)CC1(CO)CCOCC1 returned NPYLR7 agonist -8 and NPYLR7 agonist max-min -16.
`CSc1nc2c([nH]c3ccccc32)c(=O)n1-c1ccc(C)cc1` gave NPYLR7 agonist -1 and NPYLR7 agonist max-min 8.
`COc1ccccc1-n1cc(C(=O)N2CC[C@@H](N3CCN(C)CC3)[C@H](O)C2)cn1` gave NPYLR7 agonist 5 and NPYLR7 agonist max-min 2.
Screening CC(C(=O)Nc1sc2c(c1C#N)CCC2)N1CCNC(=O)C1 (stereo unspecified) returned NPYLR7 agonist 5 and NPYLR7 agonist max-min 5.
For CC1(C)C2CC=C(C=NNC(=O)Cc3cn4ccsc4n3)C1C2 (stereo unspecified) the results were NPYLR7 agonist 0 and NPYLR7 agonist max-min 4.
Screening CCOC(=O)CCC(=O)N1CCN(C(=O)CCN2CCc3sccc3C2c2cccc(F)c2)CC1 (stereo unspecified) returned NPYLR7 agonist -6 and NPYLR7 agonist max-min -12.
Screening CC(=O)c1ccc(S(=O)(=O)NC(c2ccccc2)C(C)(C)C)cc1 (stereo unspecified) returned NPYLR7 agonist 3 and NPYLR7 agonist max-min 1.
`Cc1nn(-c2ccccc2)c2nc(Cc3ccccc3)nc(N3CCCN(S(=O)(=O)c4ccc(Br)cc4)CC3)c12` gave NPYLR7 agonist 12 and NPYLR7 agonist max-min 17.
c1ccc(OCCCNc2ncnc3ccsc23)cc1 was read as NPYLR7 agonist 4 and NPYLR7 agonist max-min 0.
`Fc1ccc(-n2cc(-c3ccccc3)c3c(Cl)ncnc32)cc1` gave NPYLR7 agonist -8 and NPYLR7 agonist max-min -12.
O=C(CSc1nnc(-c2ccc(Cl)cc2)n1-c1ccccc1)N/N=C\c1ccncc1 was read as NPYLR7 agonist -14 and NPYLR7 agonist max-min -23.
Cc1nnc(-c2ccc(-c3cc(NCCO)nc4[nH]ccc34)cc2)o1 was read as NPYLR7 agonist -1 and NPYLR7 agonist max-min -2.
CCOc1ccc(C(=O)NCc2ccc3c(c2)cc(C)n3C)cc1OCC was read as NPYLR7 agonist 9 and NPYLR7 agonist max-min 3.
Screening Oc1cccc(OCc2cccc(C(F)(F)F)c2)c1 returned NPYLR7 agonist 0 and NPYLR7 agonist max-min -1.
Screening CCOc1ccc(-c2c(-c3ccccc3)ncn2CCC(N)=O)cn1 returned NPYLR7 agonist 3 and NPYLR7 agonist max-min 1.
Screening COc1ccc(NC(=O)CCC2CCCN(CC3=Cc4cccc(OC)c4OC3)C2)c(C)c1 (stereo unspecified) returned NPYLR7 agonist 22 and NPYLR7 agonist max-min 9.
Screening CCCCC(=O)N(C)c1c(CC)nc2c(OCC(=O)C(C)(C)C)cccn12 returned NPYLR7 agonist 4 and NPYLR7 agonist max-min 7.
`Cc1nc(N)c(CC(Br)CBr)c(Cl)n1` (stereo unspecified) gave NPYLR7 agonist -2 and NPYLR7 agonist max-min -7.
For O=C(c1cnn2c(C(F)(F)F)cc(-c3ccco3)nc12)N1CCCC1 the results were NPYLR7 agonist -7 and NPYLR7 agonist max-min -7.
For COc1ccc(C2CC(=O)C3C(=Nc4ccccc4NC3c3ccccc3OC)C2)cc1 (stereo unspecified) the results were NPYLR7 agonist 9 and NPYLR7 agonist max-min 6.
Screening Cc1occc1C(=O)N1CCC(n2c(C)nc3ccc(F)cc32)CC1 returned NPYLR7 agonist 10 and NPYLR7 agonist max-min 11.
CNC(=O)CCCS(=O)(=O)c1nnc(C)n1-c1ccccc1C was read as NPYLR7 agonist 0 and NPYLR7 agonist max-min 22.
`CCc1nnc(-c2cc3ccccc3n2CC(=O)Nc2ccc3c(c2)OCCO3)o1` gave NPYLR7 agonist 3 and NPYLR7 agonist max-min 2.
CCOC(=O)N1CCN(C(=O)CSc2nc(=O)n3cccc(C)c3n2)CC1 was read as NPYLR7 agonist 30 and NPYLR7 agonist max-min 26.
`Cc1cc2c(c(-c3cccs3)c1)OC(CN)C2` (stereo unspecified) gave NPYLR7 agonist 0 and NPYLR7 agonist max-min 1.
Screening CCCCOc1ccc(C(=O)N2CCN(C(=O)CCN3CCc4sccc4C3c3ccccc3C)CC2C)cc1 (stereo unspecified) returned NPYLR7 agonist 15 and NPYLR7 agonist max-min 5.
For Cc1ccc(S(=O)(=O)N2CCC(C(NC(=O)c3ccc(F)cc3)C(=O)NCc3ccco3)CC2)cc1 (stereo unspecified) the results were NPYLR7 agonist -2 and NPYLR7 agonist max-min 0.
`Cc1ccc2c(=O)cc(C(=O)N(Cc3ccccc3Cl)C3CCS(=O)(=O)C3)oc2c1` (stereo unspecified) gave NPYLR7 agonist 29 and NPYLR7 agonist max-min 26.
Screening Cc1nnsc1C(=O)N(CC1CCN(Cc2ccccc2F)CC1)CC1CCCO1 (stereo unspecified) returned NPYLR7 agonist 2 and NPYLR7 agonist max-min -1.
For CNc1ccc(C(=O)N2CCOC(COc3ccc(F)cc3)C2)cc1 (stereo unspecified) the results were NPYLR7 agonist 1 and NPYLR7 agonist max-min 2.
For CCCCOc1ccc(-c2nc(C=Nc3ccc(I)cc3C)c(O)o2)cc1 the results were NPYLR7 agonist -2 and NPYLR7 agonist max-min -6.
Cc1ccc2nc(Nc3ccc(C(=O)Nc4cccc(Cl)c4)cc3)nc(-c3ccccc3)c2c1 was read as NPYLR7 agonist -6 and NPYLR7 agonist max-min 0.
Screening COc1ccccc1CC1(C)NC(=O)c2ccccc2N1 (stereo unspecified) returned NPYLR7 agonist 3 and NPYLR7 agonist max-min 1.
For CCCCN(Cc1ccc(OS(C)(=O)=O)cc1)C(=O)Nc1ccc(OC)cc1OC the results were NPYLR7 agonist 24 and NPYLR7 agonist max-min 22.
For CC(C)CCNC(=O)c1cc(S(=O)(=O)N(C)C)ccc1Br the results were NPYLR7 agonist 2 and NPYLR7 agonist max-min 1.
Screening CC(C)C1CN(C(=O)COc2cccnc2)CCC(=O)N1CC1CC1 (stereo unspecified) returned NPYLR7 agonist -3 and NPYLR7 agonist max-min -6.
Cc1cnc2c(c1SCc1cccnc1)c(=O)n(C)c(=O)n2C was read as NPYLR7 agonist 4 and NPYLR7 agonist max-min 9.
CCOc1ccc(CN(CC)C(=O)c2ccc(OC)nc2)cc1OC was read as NPYLR7 agonist 2 and NPYLR7 agonist max-min -8.
COc1ccc(Nc2ncccc2C#N)cc1N1CCCC1=O was read as NPYLR7 agonist -33 and NPYLR7 agonist max-min -31.
`COC(=O)c1ccc(OC)c(Cn2cnc3c(-c4ccccc4)csc3c2=O)c1` gave NPYLR7 agonist 2 and NPYLR7 agonist max-min 0.
Screening COCCCN(CC(=O)N(CCc1c[nH]c2ccccc12)Cc1ccccc1)C(=O)COc1ccccc1 returned NPYLR7 agonist -1 and NPYLR7 agonist max-min 16.
`CC(C)N(CCNC(=O)N1CCN(C2CC2)C(=O)C1)C1CC1` gave NPYLR7 agonist -2 and NPYLR7 agonist max-min -2.
`CCC12CN3CC(CC)(CN(C1)C3c1c(C)[nH]c3ccccc13)C2=O` (stereo unspecified) gave NPYLR7 agonist -8 and NPYLR7 agonist max-min -10.
Screening COc1ccc(-c2n[nH]c(=S)n2-c2ccc(Cl)c(Cl)c2)cc1 returned NPYLR7 agonist 14 and NPYLR7 agonist max-min 10.
`CCN(Cc1ccccc1NC(=O)NC(C)c1nc(C)no1)C(C)=O` (stereo unspecified) gave NPYLR7 agonist 7 and NPYLR7 agonist max-min 3.
For N#Cc1ccc(S(=O)(=O)Oc2cccc(F)c2)cc1 the results were NPYLR7 agonist -2 and NPYLR7 agonist max-min -4.

Sorted by length of the SMILES (low to high): three of the compounds above.
`CCN(Cc1ccccc1NC(=O)NC(C)c1nc(C)no1)C(C)=O` (stereo unspecified) gave NPYLR7 agonist 7 and NPYLR7 agonist max-min 3.
`CCC12CN3CC(CC)(CN(C1)C3c1c(C)[nH]c3ccccc13)C2=O` (stereo unspecified) gave NPYLR7 agonist -8 and NPYLR7 agonist max-min -10.
For CCCCN(Cc1ccc(OS(C)(=O)=O)cc1)C(=O)Nc1ccc(OC)cc1OC the results were NPYLR7 agonist 24 and NPYLR7 agonist max-min 22.

As a working copy, part of the list above:
Cc1cnc2c(c1SCc1cccnc1)c(=O)n(C)c(=O)n2C was read as NPYLR7 agonist 4 and NPYLR7 agonist max-min 9.
CCOc1ccc(CN(CC)C(=O)c2ccc(OC)nc2)cc1OC was read as NPYLR7 agonist 2 and NPYLR7 agonist max-min -8.
COc1ccc(Nc2ncccc2C#N)cc1N1CCCC1=O was read as NPYLR7 agonist -33 and NPYLR7 agonist max-min -31.
`COC(=O)c1ccc(OC)c(Cn2cnc3c(-c4ccccc4)csc3c2=O)c1` gave NPYLR7 agonist 2 and NPYLR7 agonist max-min 0.

Assay outcomes from PubChem BioAssay.
